Assay outcomes: PubChem BioAssay, several laboratories
CSC inhib = cancer stem cell viability inhibitors, primary screen, luminescence; cancer stem cell-like cells viability; inhibition, % at 7.5 µM; hit rate 1.1% among 300,000; AID 2717, 2010;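 active = mean at 75% or more and at least half the replicates too; inconclusive = mean and replicates disagree; tested in HMLE shEcad cells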;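 also: 0% = median of negative and 100% = median of positive control wells; the first replicate is given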
Rce1 inh = yeast Rce1p protease inhibitors, primary screen, biochemical, fluorescence, cell-free homogeneous; CAAX prenyl protease 2 (Saccharomyces cerevisiae (strain ATCC 204508 / S288c)), Q03530; yeast membranes, quenched prenylated peptide cleavage fluorescence; calls only; hit rate 0.27% among 290,000; AID 2563, 2010;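 active = fall in fluorescence gain of 50% or more versus controls, with final raw signal at or below 3038400; inconclusive = same 50% fall but final raw signal above 3038400; inactive = fall in fluorescence gain under 50%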;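 also: plate controls were neutral control wells for no effect and wells lacking membranes for full effect; tested at 10 µM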
Target sequence (Q03530 whole entry, looked up): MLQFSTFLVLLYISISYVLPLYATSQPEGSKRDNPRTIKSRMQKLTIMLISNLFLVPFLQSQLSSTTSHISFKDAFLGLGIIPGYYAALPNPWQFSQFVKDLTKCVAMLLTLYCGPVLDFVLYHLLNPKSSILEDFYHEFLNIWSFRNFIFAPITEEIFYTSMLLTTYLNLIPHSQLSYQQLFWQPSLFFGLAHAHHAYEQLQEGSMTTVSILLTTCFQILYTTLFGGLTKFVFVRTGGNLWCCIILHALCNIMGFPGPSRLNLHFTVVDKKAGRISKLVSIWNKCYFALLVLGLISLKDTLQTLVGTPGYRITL
HIV Env fusion = inhibitors of HIV-1 Env-driven cell-cell fusion, primary screen, HeLa-JRFL effector, CEM21 target cells, luciferase; hit rate 1.1% among 360,000; inhibition, % at 12.3 µM; AID 651610, 2012;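 active = mean replicate inhibition score of at least 50 and every replicate individually at or above 50; inconclusive = only one of the two criteria met; inactive = mean below 50 and not all replicates reaching 50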;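 also: 0% = plate neutral controls and 100% = maraviroc near 300 nM; one replicate is shown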
PABP FP inh = PABP poly(A) RNA binding inhibitors, primary screen, biochemical, fluorescence polarization, uHTS | Polyadenylate-binding protein 1 (Homo sapiens), P11940 | inhibition, % at 35 µM | hit rate 1% among 290,000;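 active = 50% or more with normal probe brightness, or confirmed in later tests; inconclusive = above 50% with abnormal brightness, or retests that disagree; inactive = below 50% or failed in later tests; about a fifth of its hits are not listed in these tables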;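 also: calls also rest on retests at 20 µM and on dose response follow-up; controls were probe without protein and protein plus probe with vehicle; some compounds called inactive have numbers as strong as hits; many hits fall short of the cut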
Target sequence (P11940 whole entry, looked up): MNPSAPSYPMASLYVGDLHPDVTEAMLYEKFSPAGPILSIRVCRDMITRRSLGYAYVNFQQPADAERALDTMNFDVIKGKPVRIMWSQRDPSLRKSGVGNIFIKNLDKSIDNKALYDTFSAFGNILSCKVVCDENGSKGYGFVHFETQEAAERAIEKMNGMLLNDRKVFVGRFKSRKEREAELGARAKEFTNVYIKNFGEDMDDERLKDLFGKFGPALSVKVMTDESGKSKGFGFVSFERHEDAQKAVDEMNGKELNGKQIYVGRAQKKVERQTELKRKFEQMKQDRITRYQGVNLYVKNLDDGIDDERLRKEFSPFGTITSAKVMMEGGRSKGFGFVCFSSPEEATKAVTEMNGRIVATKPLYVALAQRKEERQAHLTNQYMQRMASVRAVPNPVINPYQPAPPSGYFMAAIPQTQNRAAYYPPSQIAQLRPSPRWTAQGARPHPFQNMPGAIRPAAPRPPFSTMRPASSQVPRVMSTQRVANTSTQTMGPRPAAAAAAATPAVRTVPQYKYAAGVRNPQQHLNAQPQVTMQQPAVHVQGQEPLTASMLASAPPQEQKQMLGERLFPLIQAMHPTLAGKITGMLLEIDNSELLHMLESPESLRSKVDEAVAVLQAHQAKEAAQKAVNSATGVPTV
UUG fidelity = modulators of yeast start codon fidelity, primary screen, whole organism, S. cerevisiae, single point, plate reader. hit rate 0.13% among 350,000. S. cerevisiae UUG-firefly luciferase reporter, luminescence/redox ratio. activity score, % at 18.7 µM;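 active = replicate mean at a twofold rise or more, about +100% in these data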;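 also: firefly luciferase made from a UUG start codon reports start codon fidelity; reporter light over untreated wells divided by growth signal over untreated wells; some hits fall short of that in this replicate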
MT1-MMP act inh = blockers of MT1-MMP proenzyme processing, primary screen, HT1080 RFP-PRO-GFP cells, GFP/RFP fluorescence; Matrix metalloproteinase-14 (Homo sapiens), P50281; GFP/RFP ratio fluorescence, overnight; percent of plate control window, DMSO zero; GFP/RFP ratio change, % at 20 µM; hit rate 0.061% among 360,000;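 active = GFP/RFP ratio change of at least 30% with cell ATP level not reduced by more than half and red fluorescence within 50% of control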; also: strong numbers were not always called active
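Read-out: GFP/RFP fluorescence ratio; Test system: RFP-PRO-GFP reporter HT1080 cells; Compound dosing: single-point 20 µM compound, 1% DMSO; Times: overnight compound exposure at 37 °C.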
eIF4H FP inh = human eIF4H binding inhibitors, primary screen, translation initiation inhibitor project, biochemical, uHTS, fluorescence polarization; eIF4H fluorescence polarization binding assay; hit rate 0.94% among 290,000; Eukaryotic translation initiation factor 4H (Homo sapiens), Q15056; inhibition, % at 35 µM;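 active = 50% or more with normal probe brightness, or confirmed in later tests; inconclusive = above 50% with abnormal brightness, or retests that disagree; inactive = below 50% or failed in later tests; about a fifth of its hits are not listed in these tables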;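 also: calls also rest on retests at 20 µM and on dose response follow-up; 0% = protein and probe with vehicle and 100% = probe without protein; strong numbers were not always called active; many hits fall short of the cut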
MT1-MMP act inh RFP = also measured in MT1-MMP act inh; calls as there; RFP signal change, %; measured here: RFP expression control read;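 0 = vehicle wells; hits needed this value within 50% of zero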
Active calls of the source: *; i = inactive; u = inconclusive; x = no result given; + = active, no number.

SMILES	CSC inhib	Rce1 inh	HIV Env fusion	PABP FP inh	UUG fidelity	MT1-MMP act inh	MT1-MMP act inh RFP	eIF4H FP inh
CCOC(=O)C1=C(C)N(C[C@@H]2CC[C@@H](Cc3ccc(-c4ccccc4)cc3)O2)C(=O)NC1c1ccc(Cl)cc1 (some centres undefined)	x	x	48	x	-2	-6	-14	x
CSc1ccc(CN2CCN(C(C)C)C(CCO)C2)cc1 (centres undefined)	-10	i	-13	-20	x	2	5	8
O=C(NCc1cccs1)c1ccc(-c2ccc(F)c(F)c2)c2ccoc12	x	x	-17	x	-5	5	0	x
COc1ccc2nc(NC(=O)CSc3nc(SC)ns3)sc2c1	5	i	-7	14	x	1	-8	-6
CCCC(=O)Nc1cc(OC)c(NC(=O)NC2CCCCC2)cc1OC	6	i	-20	3	-16	3	-2	-13
CN(C(=O)CSc1nncn1-c1ccccc1)c1ccccc1	-1	i	-26	-2	x	2	7	-6
COc1ccc(C(=O)NCC(=O)N2CCC(C)CC2)cc1OC	0	i	-59	-9	-14	-3	3	2
Cc1ccc(NC(=O)CC(C)CC2=NS(=O)(=O)c3ccccc3N2)cc1 (centres undefined)	-8	i	-10	7	-6	0	3	5
CC1CCC2(CC1)NC(=O)N(CC(=O)NC(=O)NC1CCCC1)C2=O (centres undefined)	x	i	x	-10	-16	0	2	-1
CC1CCC(NC(=O)c2cc(S(=O)(=O)N3CCCCC3)c[nH]2)CC1 (centres undefined)	10	i	14	-18	-6	-2	-3	-15
COc1ccc(Cl)cc1S(=O)(=O)Nc1ccncc1	2	i	-1	-14	-16	0	2	-3
COCCN(C(=S)Nc1c(C)cccc1C)C(C)c1cccs1 (centres undefined)	-3	i	10	-9	x	-1	1	-10

The final four compounds of the part before come first, to join the parts:
SMILES	CSC inhib	Rce1 inh	HIV Env fusion	PABP FP inh	UUG fidelity	MT1-MMP act inh	MT1-MMP act inh RFP	eIF4H FP inh
CC1CCC2(CC1)NC(=O)N(CC(=O)NC(=O)NC1CCCC1)C2=O (centres undefined)	x	i	x	-10	-16	0	2	-1
CC1CCC(NC(=O)c2cc(S(=O)(=O)N3CCCCC3)c[nH]2)CC1 (centres undefined)	10	i	14	-18	-6	-2	-3	-15
COc1ccc(Cl)cc1S(=O)(=O)Nc1ccncc1	2	i	-1	-14	-16	0	2	-3
COCCN(C(=S)Nc1c(C)cccc1C)C(C)c1cccs1 (centres undefined)	-3	i	10	-9	x	-1	1	-10
COC(C(=O)Nc1ccc(S(=O)(=O)Nc2c(C)cccc2C)cc1)c1ccccc1 (centres undefined)	3	i	-8	26	-4	7	2	7
Cc1cc(C(=O)Nc2ccccc2N2CCOCC2)c2ccccc2n1	-4	i	x	5	x	2	-5	-2
CC1(C)CC(=O)C=C(Nc2ccc(Cl)cc2)C1	-9	i	20	3	-9	0	1	0
COc1ccccc1C(C(=O)NC1CCCC1)N(C(=O)c1csnn1)C1CC1 (centres undefined)	13	i	-2	17	19	-2	-2	2
O=C(CCc1nc(-c2ccccc2F)no1)Nc1cccnc1	-6	i	59*	-2	-10	6	3	-1
CCCS(=O)(=O)c1c(S(=O)(=O)CCC)c2ccc(C(C)=O)cn2c1C(=O)OC	7	i	3	-7	x	0	3	6
O=C(NCCCN1CCCC1=O)C1CCN(S(=O)(=O)c2ccccc2)CC1	x	x	0	x	7	-1	4	x
CCNC(=O)C1(C)CCN(Cc2noc(-c3c(C)noc3C)n2)C1 (centres undefined)	x	x	-39	x	-16	2	8	x
Cc1ccc(NC(=O)N(CCCN2CCOCC2)Cc2cccnc2)cc1C	5	i	-19	-4	-18	0	2	-2
Cc1c(Cc2ccccc2)c(=O)oc2c(C)c(OC(C)C(=O)NCC3CCC(C(=O)O)CC3)ccc12 (centres undefined)	-5	i	x	6	-6	4	0	-11
CCCCN(C(=O)Cn1nnc2ccccc21)C(C(=O)NCc1ccco1)c1ccncc1 (centres undefined)	-6	i	x	4	-4	6	5	3
CCOC(=O)c1ccc(OS(=O)(=O)c2ccccc2)c(OC)c1	-11	i	-97	5	x	1	-8	-1
Cc1csc(SCC(=O)c2c(N)n(CC(C)C)c(=O)n(C)c2=O)n1	-2	i	90*	2	-18	0	-15	-8
O=Cc1ccc(-n2cccn2)cc1	-7	i	15	-10	-28	7	11	-3
Cc1nnc(SCC(=O)Nc2ccc3c(c2)OCO3)[nH]c1=O	-3	i	-1	0	x	-1	1	-7
CCS(=O)(=O)N1CCCC(C(=O)c2ccc(OC)cc2C)C1 (centres undefined)	-5	i	3	-9	x	1	0	1
Cc1ccc(C(=O)/C=C\Nc2ccc(C)c(C)c2)cc1	-7	i	-43	2	x	-2	3	9
Cc1coc2c(C)c3oc(=O)cc(-c4ccccc4)c3cc12	16	x	-34	x	-15	0	5	x
NC(=O)C1CCN(C(=O)CCNS(=O)(=O)c2ccccc2F)CC1	-9	x	x	x	-29	-1	0	x
COc1ccc(-c2nn3c(COc4ccccc4)nnc3s2)cc1OC	-4	i	-47	-2	-16	4	3	-21
O=C(CSc1cccc(C(F)(F)F)c1)Nc1cc(S(=O)(=O)N2CCCC2)ccc1Cl	-3	i	x	4	-17	9	2	6
O=C(NCCCCNC(=O)c1c(F)c(F)c(F)c(F)c1F)c1c(F)c(F)c(F)c(F)c1F	-15	i	-114	3	-21	0	4	2
COc1ccc2c(c1)-c1nc(/N=C/c3ccc(O)c(OC)c3)sc1CC2	-15	x	x	-15	x	1	1	-9
CC(=O)NC(CC(=O)NC(C)c1ccc(Cl)cc1Cl)c1ccccc1 (centres undefined)	3	i	2	6	x	2	-2	12
COc1ccc([C@@H]2[C@@H]3C(=O)N(C(C)(C)C)C(=O)[C@@H]3[C@]3(Cc4ccc(Cl)cc4)C(=O)N(c4ccc(OC)cc4)C(=O)N23)cc1	-5	i	u	x	-10	3	-5	x
CCc1ccc(N(CC(=O)N2CCCC2)S(C)(=O)=O)cc1	x	x	-2	x	-22	7	5	x
COc1ccccc1C(O)c1nccn1C (centres undefined)	7	i	-1	-6	-3	0	2	-7
O=C(NCc1ccc2c(c1)OCO2)c1c(-c2ccccc2)sc2ccccc12	17	x	4	x	-13	6	-3	x
Cc1cccc(NS(=O)(=O)c2cc(Cl)ccc2Cl)n1	-7	i	-55	-5	-3	-3	1	-4
CN(C(=O)COC(=O)C1(C)CC1(Cl)Cl)c1c(N)n(Cc2ccccc2)c(=O)[nH]c1=O (centres undefined)	22	x	x	x	-18	-3	5	x
COc1ccc(C(=O)Nc2ccnn2C2CCN(CCC(C)c3ccc(C)o3)CC2)cc1 (centres undefined)	-7	i	-2	-3	1	-2	2	-1
O=C(Cn1ccnc1)c1ccc(Cl)cc1	1	i	-17	-6	-14	0	1	1
COc1ccccc1-c1c(C)oc2c(CN3CCCC(C)C3)c(O)ccc2c1=O (centres undefined)	x	i	9	-9	-9	1	2	2
COC(=O)c1c(NC(=S)NNC(=O)c2ccc(Cl)s2)sc(C(=O)N(C)C)c1C	-10	i	5	27	-7	5	5	3
COc1ccc(OCC(O)CN2C(=O)c3ccccc3S2(=O)=O)cc1 (centres undefined)	12	i	x	2	-1	-1	5	-2
O=C1CC(N2CCN(c3ccccc3F)CC2)C(=O)N1c1ccc(F)cc1 (centres undefined)	-3	i	x	x	x	0	3	x
O=C(Nc1ccc(S(=O)(=O)N2CCOCC2)cc1)c1ccccc1F	x	i	-2	-3	-6	3	-3	11
CN(C)c1ccc(-c2nc3cnccn3c2Nc2ccc3c(c2)OCCO3)cc1	-15	i	-7	-10	-22	2	2	-9
Cc1cc(C)c(S(=O)(=O)N2CCN(c3ccc([N+](=O)[O-])c(NCc4ccco4)c3)CC2)c(C)c1	-8	x	x	1	-13	11	-6	-7
CCn1cc(CN2CCC(C(=O)Nc3cccc(-c4cccc(OC)c4)c3)CC2)cn1	-6	i	-2	6	1	0	1	1
O=C1NC2(C=Cc3c(ccc4ccccc34)O2)Oc2ccccc21 (centres undefined)	43	+	x	10	-25	2	-1	-6
COc1cccc(/C=C/C(=O)OCC(=O)Nc2cccc(S(=O)(=O)N3CCOCC3)c2)c1OC	1	i	-10	20	x	-1	1	-3
CC(C)(C)c1ccc(OCCC(=O)Nc2ccc(N3CCOCC3)cc2N2CCOCC2)cc1	0	i	69*	x	8	-7	-7	x
CC(=O)c1ccc(Sc2ccccc2)c([N+](=O)[O-])c1	34	i	-8	-8	4	0	-3	-6
COCCCN(C(=O)c1ccccc1F)c1nc(-c2ccc(OC)cc2)cs1	19	i	4	-7	-24	-5	-9	-6
CCOc1ccc2[nH]c(=O)c(=O)[nH]c2c1	14	x	x	-6	-4	-4	3	4
CN1C(=O)c2cccc3c(S(=O)(=O)Nc4ccccn4)ccc1c23	3	i	x	23	x	11	16	-3
Nc1ccc(CCc2nc3ccccc3o2)cc1	13	i	-31	0	-31	1	-1	-1
COC(=O)c1cc(C)nc(Sc2ccccc2NC(C)=O)n1	10	i	5	13	-2	2	-1	3
CSc1nc(NCCCO)c2c3c(sc2n1)CN(C)CC3	-10	i	9	11	x	-7	-3	20
CC1(C(=O)Nc2ccc(Cl)cc2)Cc2c(-c3ccc(C(N)=O)cc3)ccnc2O1 (centres undefined)	x	x	-5	x	0	3	-2	x
O=C(c1cccnc1)N1CCc2ccccc2C1	6	i	3	-1	-7	5	1	-3
Cc1nn(C2CCS(=O)(=O)C2)c(Cl)c1/C=C/C(=O)OCC(=O)Nc1ccc2c(c1)OCO2 (centres undefined)	-1	i	14	16	-5	3	2	-8
CCCCn1nc(C(=O)N(CC)CC(=O)Nc2c(F)cccc2F)c2ccccc2c1=O	-7	x	x	x	-13	0	0	x
CCOc1ccc(-c2c(=O)n(OCc3ccccn3)c3ccccc3[n+]2[O-])cc1	-6	i	-44	-5	-16	0	6	-4
COc1c(Cl)cc(Cl)cc1CNCCO	-11	i	-1	-5	x	6	8	2
O=C(COc1ccc(S(=O)(=O)NCc2ccccc2)cc1Cl)NCC1CCCO1 (centres undefined)	-3	i	x	9	-23	7	3	-5
CCOc1cc(C(=O)OCC(=O)c2c[nH]c3ccccc23)ccc1OCC(=O)N1CCOCC1	-15	i	x	-9	-13	1	-2	3
CCOC(=O)C1(Cc2cccc(OC)c2)CCN(Cc2cccc(O)c2)CC1	2	i	12	1	-8	-3	-1	2
CCN1CCCC1CNC(=O)c1ccc2c(c1)NC(=O)/C(=C\c1ccccc1F)S2 (centres undefined)	x	x	-34	x	2	3	-3	x

Following part.
SMILES	CSC inhib	Rce1 inh	HIV Env fusion	PABP FP inh	UUG fidelity	MT1-MMP act inh	MT1-MMP act inh RFP	eIF4H FP inh
CCNC(=S)N/N=C(\C)c1ccc(N2CCOCC2)cc1	-11	i	-15	6	x	4	-1	1
CCN(CC)C(=O)c1csc([C@H]2C[C@H](O)[C@@H](CO)O2)n1	x	x	9	x	-8	1	4	x
O=C(NCc1ccc(Cl)cc1)C(=O)c1c[nH]c2ccccc12	12	i	-14	-6	-15	-5	-3	-5
CCOC(=O)N=S(=O)(Oc1ccc([N+](=O)[O-])cc1)c1ccccc1 (centres undefined)	-18	i	-52	-8	-18	-1	-2	1
COc1cc(COCC(O)CN2CCCCC2C)cc(OC)c1OC (centres undefined)	3	i	8	-4	-13	0	4	-11
